Vif A3G – inhibitors of Vif binding to APOBEC3G peptide, primary screen, biochemical, TR-FRET, GST-Vif 1-94, biotin-A3G peptide, dose response retest (AID 1117319) | actives 0.57% (n = 260,000) | inhibition, %, or IC50 in µM where a hit was titrated | TR-FRET GST-Vif / biotin-A3G peptide binding; higher % means a stronger effect; test concentration not given here; strong numbers were not always called active;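 active means above the screen mean plus three standard deviations and confirmed in dose response; inconclusive means results disagree or hit not tested in dose response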;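 further: Vif residues 1-94 fused to GST binding biotinylated APOBEC3G peptide 110-148; 0% = full assay without inhibitor and 100% = GST in place of GST-Vif; retest series ran down from 100 µM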
LANA-H2B inh – blocks KSHV LANA binding to histone H2A/H2B; Q9QR71; inhibition, % (no concentration beside the values); cell-free LANA-H2A/H2B peptide, fluorescence polarization; actives 0.6% (n = 320,000); in the data active means inhibition mostly above about 10%, no sharp cut-off; inactive means mostly below about 6.7%;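 further: stock transfer was 7.5 nL into about 10 µL; 0% = median of vehicle wells and 100% = median of positive control wells; one replicate is shown; the record names a cut of 25% in any replicate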
ALR H2O2 inh – human ALR oxidase inhibition via reduced H2O2; P55789; purified ALR, DTT oxidation, H2O2 HRP-luminol luminescence; inhibition, % (concentration not given with the values); actives 3.8% (n = 290,000);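 active means mean and each replicate at 75% or more; inconclusive means only one of the two met; inactive means neither met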;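 further: stock transfer was 7.5 nL into about 7.5 µL; 0% = neutral wells and 100% = wells with inactivated enzyme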
Target sequence (P55789 whole entry, looked up): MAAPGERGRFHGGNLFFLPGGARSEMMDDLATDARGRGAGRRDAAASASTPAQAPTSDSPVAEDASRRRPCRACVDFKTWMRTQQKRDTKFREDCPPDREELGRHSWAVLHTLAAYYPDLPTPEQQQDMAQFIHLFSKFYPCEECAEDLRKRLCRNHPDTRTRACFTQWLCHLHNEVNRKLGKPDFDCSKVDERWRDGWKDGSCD
HNF4A DNA FP – change in binding of human HNF4 alpha to DNA. actives 0.3% (n = 360,000). activity change, % at 10 µM. HNF4a-FITC DNA binding, fluorescence polarization, 1 h. P41235; in the data active means activity change above about 30%, passing the limit was not always enough;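 further: controls were the assay level and a saturating level of protein; the project sought stronger binding though the title names inhibitors; some compounds called inactive have numbers as strong as hits; positive values seem to mean higher polarization but the record does not say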
Target sequence (P41235 whole entry, looked up): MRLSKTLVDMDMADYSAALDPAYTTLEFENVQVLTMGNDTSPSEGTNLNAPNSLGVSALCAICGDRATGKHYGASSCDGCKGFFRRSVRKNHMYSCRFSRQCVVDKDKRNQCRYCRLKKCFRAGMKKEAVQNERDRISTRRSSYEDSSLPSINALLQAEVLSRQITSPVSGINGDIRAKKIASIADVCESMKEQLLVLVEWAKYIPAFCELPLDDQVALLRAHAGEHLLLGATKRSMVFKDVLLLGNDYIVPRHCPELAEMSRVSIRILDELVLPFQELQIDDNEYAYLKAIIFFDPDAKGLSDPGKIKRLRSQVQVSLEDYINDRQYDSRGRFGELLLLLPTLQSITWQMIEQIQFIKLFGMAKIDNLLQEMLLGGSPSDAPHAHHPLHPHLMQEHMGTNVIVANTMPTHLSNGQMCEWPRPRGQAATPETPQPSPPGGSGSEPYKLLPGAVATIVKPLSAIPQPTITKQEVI
RanGTP-Impb inh – disruptors of Ran-importin-beta complex formation – biochemical, FRET, CFP-Ran, YFP-importin-beta, homogeneous, primary screen | cell-free CFP-Ran/YFP-importin-beta FRET ratio | inhibition, % (no concentration beside the values) | actives 1.1% (n = 300,000) | AID 2216;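 active means most replicates above 15%; inconclusive means exactly half above 15%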;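 further: 0% = DMSO wells and 100% = Ran loaded with GDP instead of GTP; wells of about 40 µL received 100 nL stock; the first replicate is given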
B2AR ag – human beta-2 adrenergic receptor agonism by FAP. Am2.2-beta2AR cells, FAP receptor internalization, flow cytometry; reference of the scale not given here. response, % (test concentration not listed). actives 0.43% (n = 340,000). AID 504454;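 active means response above a set limit, near 3 SD of response in nonfluorescent compounds, cut at about 42% in these data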;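 further: stock transfer was 100 nL into about 11 µL; a reference agonist was the positive control; negative values mostly stem from fluorescent compounds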
Target sequence (P07550 whole entry, looked up): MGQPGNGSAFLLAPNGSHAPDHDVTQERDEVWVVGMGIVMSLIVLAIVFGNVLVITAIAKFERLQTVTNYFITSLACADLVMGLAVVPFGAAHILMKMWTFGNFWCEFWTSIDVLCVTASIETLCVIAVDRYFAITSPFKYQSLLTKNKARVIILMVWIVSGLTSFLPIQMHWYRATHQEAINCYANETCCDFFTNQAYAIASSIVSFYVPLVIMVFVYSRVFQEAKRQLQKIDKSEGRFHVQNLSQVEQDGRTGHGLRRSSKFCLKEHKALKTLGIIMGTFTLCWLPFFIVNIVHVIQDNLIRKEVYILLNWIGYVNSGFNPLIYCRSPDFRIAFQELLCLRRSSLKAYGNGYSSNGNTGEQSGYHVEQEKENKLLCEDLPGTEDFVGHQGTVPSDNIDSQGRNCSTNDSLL
Calb FLC – C. albicans growth modulation with fluconazole | growth inhibition, % (concentration not given with the values) | actives 0.57% (n = 300,000) | AID 1979 | C. albicans CaCi-2 (fluconazole-resistant clinical isolate) + fluconazole, Alamar Blue growth, 48 h;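 active means most replicates above 75%; inconclusive means exactly half above 75%; inactive means most below 75%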;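 further: all wells also contain fluconazole at 8 µg/ml as a sub-toxic cotreatment; 0% = median of DMSO wells and 100% = median of geldanamycin control wells; wells of about 8 µL received 7.5 nL stock; the first replicate is given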
Active calls of the source: *; ? = inconclusive; nt = not tested or not shown.

SMILES	Vif A3G	LANA-H2B inh	ALR H2O2 inh	HNF4A DNA FP	RanGTP-Impb inh	B2AR ag	Calb FLC
Cc1ccccc1NC(=O)c1c(C)[nH]c(=S)c(C#N)c1-c1ccco1	19µM*	2.8	19	-1.1	0.2	0	-3
COc1ccc(NC(=O)COc2ccc(C)cc2)c([N+](=O)[O-])c1	-4%	-2.8	nt	nt	1.8	nt	-17
CCCCC/C=C/C1=CC(=O)C[C@H](c2ccc(Cl)cc2)C1	nt	-0.3	6	-2.9	nt	-2	nt
Cc1cc(C)n2ncnc2n1	5%	1.4	-14	6.7	2.1	1	-2
Cc1ccc(NC(=O)N2CCCC(c3ccccc3)C2)cc1 (centres undefined)	-1%	0.3	-1	-0.7	-2.4	6	-19
Cc1cc(OCC(=O)NCc2ccccn2)c2c(C)c(C)c(=O)oc2c1	-7%	-2.9	2	-0.7	6.2	11	7
O=[N+]([O-])c1cc(S(=O)(=O)NCCc2ccccn2)ccc1Cl	4%	6.6	-16	2.2	nt	3	nt
CCCn1nnnc1NCc1ccccc1F	nt	-2.1	nt	4.6	-4.2	-3	-1
S=C(NCc1ccccc1)N1CCN(C2CCCCC2)CC1	5%	4.9	-6	3.5	?	-5	-11
Cc1nc(NC(=O)CSc2cc(C)c3ccccc3n2)c(Cl)cc1Cl	-32%	-3.0	-4	0.5	-1.2	1	-2
O=C(COC(=O)c1ccco1)Nc1ccccc1[N+](=O)[O-]	-4%	2.5	1	-2.8	4.3	0	-2
COc1ccccc1-n1cc(-c2ccc([N+](=O)[O-])cc2)[nH]c1=S	-12%	-1.7	1	2.0	1.8	-4	2
O=C(O)c1cc(N/N=C/c2ccc(-c3ccc(F)cc3)o2)ccc1Cl	nt	5.5	98*	-1.3	?	0	-7
COc1cccc(/C=N/NC(=O)CCc2c(C)n[nH]c2C)c1	0%	-1.2	-6	-4.1	3.5	4	-2
COC(=O)CCCC1=CC2=CC(=O)C(C)(OC(=O)c3cccs3)C(=O)C2=CN1CCc1ccccn1 (centres undefined)	?	-5.2	-56	-0.3	1.8	2	11
CC(=O)N1CCN(C(=O)c2cccc(S(=O)(=O)Nc3ccc(C)cc3)c2)CC1	2%	1.0	-4	-4.8	1.6	2	-2
CC(C)c1cc(-c2cc(C(=O)NCc3ccccc3)on2)nc(NC2CCCC2)n1	-5%	2.7	-4	2.4	2.6	-1	-6
O=C(O)C1CCN(S(=O)(=O)c2cccnc2)CC1	2%	-1.7	3	-0.8	6.0	-3	1
CCc1ccccc1NC(=O)CN(C)S(=O)(=O)c1ccc2c(c1)c(=O)n(C)c(=O)n2C	-3%	0.5	-2	-1.7	4.7	3	-1
Oc1c(Br)cccc1/C=N/c1ncn[nH]1	2%	-3.8	-15	-2.5	2.9	1	-7

Profiles as entered above. Order of values: Vif A3G	LANA-H2B inh	ALR H2O2 inh	HNF4A DNA FP	RanGTP-Impb inh	B2AR ag	Calb FLC
CC(C)c1cc(-c2cc(C(=O)NCc3ccccc3)on2)nc(NC2CCCC2)n1 is listed as -5%	2.7	-4	2.4	2.6	-1	-6
Cc1cc(C)n2ncnc2n1 is listed as 5%	1.4	-14	6.7	2.1	1	-2
O=C(COC(=O)c1ccco1)Nc1ccccc1[N+](=O)[O-] is listed as -4%	2.5	1	-2.8	4.3	0	-2
CCCCC/C=C/C1=CC(=O)C[C@H](c2ccc(Cl)cc2)C1 is listed as nt	-0.3	6	-2.9	nt	-2	nt
COC(=O)CCCC1=CC2=CC(=O)C(C)(OC(=O)c3cccs3)C(=O)C2=CN1CCc1ccccn1 (centres undefined) is listed as ?	-5.2	-56	-0.3	1.8	2	11

More records follow.
SMILES	Vif A3G	LANA-H2B inh	ALR H2O2 inh	HNF4A DNA FP	RanGTP-Impb inh	B2AR ag	Calb FLC
COC(CNC(=O)C1CCCN1C(=O)OCc1ccccc1)OC (centres undefined)	-3%	0.5	-1	-7.0	-3.8	21	18
Cc1noc(C)c1CSc1nnc(C)c(=O)[nH]1	?	4.1	nt	0.3	-3.6	-9	-8
COc1cc(C(=O)Nc2nc3ccccc3[nH]2)cc(OC)c1OC	30%	-0.7	1	-2.9	?	-8	-15
Cc1nc2ncnn2c(C)c1CCC(=O)NC(C)CCc1ccco1 (centres undefined)	5%	4.7	6	-2.4	6.2	-2	1
CC(=O)Nc1ccc2c(c1)OCCOCCOc1cc(NC(C)=O)ccc1OCCOCCOCCO2	30%	5.2	-8	nt	4.9	nt	-23
CC1=C(C(=O)OCC2CCCO2)C(c2ccncc2)C2=C(CC(C)(C)CC2=O)N1 (centres undefined)	-5%	-7.5	-3	-4.7	?	-9	-8
COC(=O)Cn1c2ccccc2c2nc(C)sc21	5%	2.0	7	0.8	-4.4	7	20
Cc1cccc(C(=O)NCc2ccco2)c1	nt	0.5	3	0.5	3.0	1	13
CCCCn1c(N)c(N(CCOC)C(=O)c2ccc(-c3ccc(C(C)=O)cc3)o2)c(=O)[nH]c1=O	12%	-0.7	11	-0.6	0.4	7	0
Cc1ccc(C(=O)NCc2cccnc2)cc1S(=O)(=O)N1CCCCCC1	-4%	-2.6	-4	0.5	-3.4	-1	6
Cc1sc2c(c1C)CN(CCN1CCOCC1)CN2C(=O)c1ccccc1	-4%	-3.6	35	-0.3	0.6	-3	-14
C/C(Cl)=C/Cn1c(NCCN(C)C)nc2c1c(=O)n(C)c(=O)n2C	-3%	5.6	3	2.4	5.9	-4	0
CCC(=O)N1CCc2cc(S(=O)(=O)NCCC(=O)N3CCc4ccccc4C3)ccc21	2%	-0.2	nt	-1.3	2.8	-9	?
Cc1ccc(-c2csc3ncnc(NCCN4CCOCC4)c23)cc1	-3%	-5.2	-7	-2.7	-3.0	0	-14
CN1CCN(CC(=O)Nc2c(C(=O)C3CC3)oc3ccccc23)CC1	-9%	-5.0	-7	1.2	0.2	2	-12
Cc1ccc(Sc2ncccc2O)cc1	nt	-5.5	14	0.7	2.8	-1	-2
COC(=O)c1c(C(=O)OC)c2n(c1C)Cc1ccccc1C2	2%	2.5	54	-9.3	2.6	-8	8
Nc1c(-c2n[nH]c(=S)n2-c2ccc(Cl)cc2Cl)cnn1-c1ccccc1	16%	11	31	1.3	-0.2	-4	-7
CC(C)CCNC(=O)CCn1nc(-c2ccccc2)ccc1=O	-2%	-1.7	-4	-0.9	-1.3	2	-1
Nc1cc(N)nc(SCC(=O)Nc2cc(S(=O)(=O)N3CCOCC3)ccc2Cl)n1	nt	4.8	1	-0.3	3.5	3	-5

Structures listed above that bear a hit mark in ALR H2O2 inh.
structure	Vif A3G	LANA-H2B inh	ALR H2O2 inh	HNF4A DNA FP	RanGTP-Impb inh	B2AR ag
O=C(O)c1cc(N/N=C/c2ccc(-c3ccc(F)cc3)o2)ccc1Cl	nt	5.5	98*	-1.3	?	0

Additional compounds.
SMILES	Vif A3G	LANA-H2B inh	ALR H2O2 inh	HNF4A DNA FP	RanGTP-Impb inh	B2AR ag	Calb FLC
Cc1ccccc1C1C(=O)c2ccccc2C1=O	nt	-2.5	0	1.6	1.7	9	-1
COc1ccccc1C(CNC(=O)C(C)Oc1ccc(Br)cc1)N1CCCC1 (centres undefined)	0%	5.8	-9	0.7	7.3	-6	nt
COc1ccccc1/C=C/C=N/n1c(COc2ccccc2)n[nH]c1=S	7%	2.1	1	2.4	-3.0	5	-16
COc1cc2c(C(=O)OCCN(C)C)c(CSc3ccccc3)n(C)c2cc1Br	nt	1.6	59	3.4	-5.1	9	6
O=C(CCCSc1nc2ccccc2[nH]1)NCc1ccccc1Cl	nt	-9.1	1	0.8	-0.3	5	-2
CN(C)C(=S)NC(C)(C)C	1%	-0.7	3	0.5	3.6	-1	-1
Cc1cccc(NC(=O)CSc2nc3ccccc3nc2N2CCCC2)c1C	nt	12	-35	-1.3	2.3	-10	0
O=C(CC12CC3CC(CC(C3)C1)C2)Nc1cccc2ncccc12	1%	-10	-3	-2.3	-4.3	-19	6
COc1cc(NC(=O)c2cccnc2)c(OC)cc1NC(=O)c1ccc(Br)cc1	nt	-10	nt	0.9	1.5	-8	-1
CCCCNC(=O)O[C@H]1C[C@@H]2CCN3C(=O)CCC(C)(C)[C@H](C1)[C@H]23	nt	7.3	-11	0.3	-3.7	2	-9
N/C(Cc1ccc([N+](=O)[O-])cc1)=N\OC(=O)c1ccc([N+](=O)[O-])cc1	1%	3.2	-10	1.6	1.5	19	-3
Cn1c(SCC(=O)Nc2ccccc2F)nnc1-c1cccs1	nt	-2.1	-1	-2.2	0.7	-14	-9
O=P(c1ccccc1)(c1ccccc1)C(O)c1ccncc1 (centres undefined)	2%	3.6	1	-1.2	0.9	-3	-6
CC(C)Nc1nnc(SCC(=O)Nc2ccc3c(c2)C(=O)c2ccccc2C3=O)s1	nt	2.3	-4	-7.8	5.1	18	16
CC1CCCN(CC(=O)N2c3ccccc3Sc3ccccc32)C1 (centres undefined)	4%	-0.3	69	-1.6	-0.8	6	-8
Nn1c(SCc2c(F)cccc2F)nnc1-c1ccccn1	-3%	1.5	-9	0.1	4.0	-4	8
O=C(CC(=O)N/N=C\c1c(Cl)cccc1Cl)NCc1ccccc1	-1%	3.9	-4	-9.7	4.3	1	15
COc1cccc(-n2cc(C(=O)NCCCOC(C)C)c3ccccc3c2=O)c1	-15%	-0.9	-1	0.5	-2.5	-1	4
Cn1cnnc1SCC(=O)NN(c1ccccc1)c1ccccc1	-7%	0.5	35	-2.6	3.3	0	4
CNC(=O)/C(C#N)=C/c1cc(C)n(-c2ccc(N3CCOCC3)cc2)c1C	-3%	3.5	nt	0.0	-1.8	-21	0
CSc1ncccc1C(=O)Nc1ccc(F)c(F)c1F	3%	-1.3	0	-0.6	1.0	-2	-7
COc1ccc(CCNC(=O)CSc2nnc(Cc3cccn3C)n2C)cc1OC	14%	-2.1	nt	1.1	6.6	1	-6
CCOC(=O)C1CCN(C(=O)c2c(-c3c(F)cccc3Cl)noc2C)CC1	-1%	11	2	-0.4	1.9	-2	5
CCOC(=O)c1ccccc1NC(=S)N1CCC(C)CC1	10%	-1.8	2	1.1	-0.7	-2	-6
Cc1cccc(NC(=O)CSc2ccc3nnc(-c4cccnc4)n3n2)c1	9%	13*	-13	-1.1	-1.8	-13	-8
CC1(C)Oc2ccc3ccc(=O)oc3c2/C(=C/Nc2ccccc2)C1=O	6%	3.9	6	3.6	?	10	-4
COc1ccc(-c2oc3cc(O)c(OC)c(O)c3c(=O)c2OC)cc1	nt	-9.4	23	0.5	0.0	-3	-4
O=C(O)C1CCCCC1C(=O)NCCc1cccc(Cl)c1 (centres undefined)	-2%	1.8	-3	9.7	nt	1	0
COc1ccc(N/C(N)=N/c2nc(C)cc(=O)[nH]2)cc1	nt	-7.0	nt	2.1	-0.1	7	5
O=C1CC(c2ccc3c(c2)OCO3)Sc2nc3ccccc3n21 (centres undefined)	1%	1.7	4	0.2	2.5	-8	-6
OCCNc1nc(Nc2ccccc2)nc(Nc2ccccc2)n1	-10%	3.3	-2	-0.3	0.2	-14	-10
COc1ccc(C)cc1NC(=O)CN(C)S(=O)(=O)c1ccc2c(c1)c(=O)n(C)c(=O)n2C	nt	6.8	-3	-1.3	0.3	-2	0
OC(COc1ccc(OCC(O)CN2CCCCCC2)cc1)CN1CCCCCC1 (centres undefined)	?	0.3	-9	1.5	?	-3	9
CCCCN(C(=O)c1cc(-c2ccc(F)cc2)nc2ccccc12)c1c(N)n(CCCC)c(=O)[nH]c1=O	-11%	nt	nt	4.6	nt	8	nt
Cc1cc(NC(=O)CSc2nnc(Cn3c(=O)sc4ccccc43)n2-c2ccccc2C)no1	23%	-6.2	-6	3.3	5.6	3	-5

Assay outcomes: PubChem, several laboratories
